Assay outcomes (PubChem BioAssay)
StopGo RLuc – FMDV 2A StopGo reporter, Renilla signal | Potency, µM (series often up to 57.5 µM), without a hit: at the highest dose signal change, negative = less light | actives 0.32% (n = 120,000) | HEK cells with a luciferase reporter of 2A StopGo recoding; active means well fitted falling curve with a large enough effect; inconclusive means small, poorly fitted or top-dose-only effect; inactive means no such curve, though single readings can be large or run the other way; note: nearly all actives have a fitted effect of over 55% in size; overnight with compound
StopGo FLuc – lowers the firefly signal of an FMDV 2A StopGo reporter | HEK cells with a luciferase reporter of 2A StopGo recoding | Potency, µM (series often up to 57.5 µM), inactives show top-dose signal change, negative = less light | actives 0.23% (n = 120,000) | AID 1745856; active = well fitted falling curve with a large enough effect; inconclusive = small, poorly fitted or top-dose-only effect; inactive = no such curve, though single readings can be large or run the other way; note: nearly all actives have a fitted effect of over 60% in size; overnight with compound
Numbers without * were called inactive; ? = inconclusive; & = joins results of further samples; [ ] = dose if it differs, or a comment. % is set by controls: 0 for no effect and ±100 for the full control effect; potency is the fitted concentration of half-maximal effect.

Each structure is followed by: StopGo RLuc, StopGo FLuc
CCOC(=O)c1ccc(N)cc1
    -7.1%, 18.5%
Cc1[nH]n2c(=O)cc(-c3ccc(Cl)cc3)nc2c1-c1ccccc1
    ?, 0.0%
CC(=O)NC(Cc1ccccc1)C(=O)O (centres undefined)
    -6.9%, -12.1%
COC(=O)c1nc(Cl)c(Cl)nc1N
    31.8%[activator], -1.4%[11.5 µM]
O=C(O)Cc1ccc2c(c1)C(=O)c1ccccc1CO2
    -7.9%, -3.7%[11.5 µM]
CN(C)CCOC(C)(c1ccccc1)c1ccccn1 (centres undefined)
    -0.3%&0.5%, -18.0%
Cc1c(I)c(=O)n(-c2ccccc2)n1C
    -5.9%, -18.2%[11.5 µM]
O=C1CC2(CCCC2)CC(=O)N1
    -3.2%, -4.3%[11.5 µM]
CCOC(=O)N1CCC(Nc2ccc(Cl)cc2N)CC1
    -24.7%, -30.8%
COc1ccc(CC(=O)NCC(c2cccs2)S(=O)(=O)c2ccc(Cl)cc2)cc1 (centres undefined)
    -4.2%, -12.5%
CN1CCOC(c2ccccc2)c2ccccc2C1 (centres undefined)
    -8.5%, -12.7%
Cc1cn([C@@H]2O[C@H](CO)[C@@H](O)[C@H]2F)c(=O)[nH]c1=O
    -11.0%, -14.3%
O=C(CCNNC(=O)c1ccncc1)NCc1ccccc1
    -9.6%, -14.0%[11.5 µM]
Cc1ccccc1C(=O)Nc1ccc(C(=O)N2CCCC(O)c3cc(Cl)ccc32)c(C)c1 (centres undefined)
    1.9%, -11.5%
CCCNC(C)C(=O)Nc1c(C)csc1C(=O)OC (centres undefined)
    -4.6%, -8.9%[11.5 µM]
Nc1nnnn1-c1ccccc1
    0.6%, -12.9%[11.5 µM]
OCCN1CCN(CCCN2c3ccccc3Sc3ccc(Cl)cc32)CC1
    -7.2%, -8.0%
Cc1c(NC(=O)c2cccnc2)c(=O)n(-c2ccccc2)n1C
    -17.9%, -23.8%
CC(C)C(=O)Nc1cccc(C(F)(F)F)c1
    2.1%, -4.7%[11.5 µM]
CC(C(=O)O)c1ccc(C(=O)c2cccs2)cc1 (centres undefined)
    -7.2%, -15.9%
C/C=C(/C(=C/C)c1ccc(OC(C)=O)cc1)c1ccc(OC(C)=O)cc1
    -11.1%, -9.5%[11.5 µM]
CCC(=O)N1CCC(C(=O)O)CC1
    -7.4%, -3.3%
CCN(CC)CCNC(=O)c1cc(Cl)c(N)cc1OC
    -1.3%, -5.0%[11.5 µM]
COc1cc(C(c2c(C)[nH][nH]c2=O)c2c(C)[nH][nH]c2=O)ccc1OC(=O)c1ccccc1F
    -6.2%, -9.8%
COc1ccc(C(=O)NCc2ccc(OCCN(C)C)cc2)cc1OC
    27.4%, 17.0%[11.5 µM]
Cc1oc(=O)oc1CN1CCN(c2cc3c(cc2F)c(=O)c(C(=O)O)c2n3C(C)S2)CC1 (centres undefined)
    -2.7%, -13.8%
CCOCCCNC(=O)C(=O)Nc1c2c(nn1-c1ccc(OC)cc1)CSC2
    -15.0%, -20.2%
O=C(CCN1CCC(c2ccccc2)C1)c1ccc2c(c1)OCCO2 (centres undefined)
    -7.9%, 18.5%[11.5 µM]
CC(CC(C#N)(c1ccccc1)C(C)C)N(C)C (centres undefined)
    -13.5%, -20.2%
CCc1nnc(NC(=O)CSc2nc3c([nH]c4ccccc43)c(=O)n2-c2ccc(OC)cc2)s1
    45.2%[activator], 13.7%
CC12CCC(CC1)C(C)(C)O2
    -9.6%, -1.6%[11.5 µM]
COC(=O)c1ccc(O)cc1
    -7.1%, -0.7%[11.5 µM]
C/C(=C1\CCOC(=O)S1)N(C=O)Cc1cnc(C)nc1N
    -6.9%, -12.1%
CCOC(=O)c1ccc(OCCN2C[C@H](O)[C@@H](O)[C@H](O)[C@H]2CO)cc1
    -17.8%, -17.7%
COc1ccc(-n2ccn(CC(=O)Nc3ccc(C)c(C)c3)c(=O)c2=O)cc1OC
    -7.4%, -6.2%
Nc1nc(=O)n([C@@H]2O[C@H](CO)[C@@H](O)[C@@H]2F)cc1I
    -7.8%, -9.9%[11.5 µM]
CCOc1ccc(NC(=O)Cn2cc(C(=O)c3ccco3)c3ccccc32)cc1
    -7.2%, -6.9%
O=C(CC1N=C2c3ccccc3N=C(SCc3ccc(F)cc3)N2C1=O)NC1CCCCC1 (centres undefined)
    7.4%, -16.9%
CN(C(=O)CCCOc1ccc2[nH]c(=O)ccc2c1)C1CCCCC1
    -3.6%, 11.8%
CC(=O)c1ccc(S(=O)(=O)NC(=O)NC2CCCCC2)cc1
    23.9%, -1.9%
CC1COc2c(N3CCN(C)CC3)c(F)cc3c(=O)c(C(=O)O)cn1c23 (centres undefined)
    -4.2%, -14.1%
CN1CCN(CCC(=O)N2c3ccccc3Sc3ccc(C(F)(F)F)cc32)CC1
    -14.0%, -17.1%[11.5 µM]
CN1CCN(C(c2ccccc2)c2ccccc2)CC1
    -15.4%, -20.6%
CCOC(=O)C(=O)CCc1ccccc1
    183.4%[activator], -17.8%
NC(=O)c1cn(Cc2c(F)cccc2F)nn1
    -8.1%, -12.8%
O=C(O)c1ccc[n+]([O-])c1
    -10.4%, -20.0%
Cc1ccc(C(=O)Oc2ccc(C(O)CNC(C)(C)C)cc2OC(=O)c2ccc(C)cc2)cc1 (centres undefined)
    -8.6%, -15.6%
Cc1cc(-c2ccccc2)nnc1NCCN1CCOCC1
    4.8%, 11.2%[11.5 µM]
COc1ccc(-n2nc(CCC(=O)N(C)O)cc2-c2ccc(Cl)cc2)cc1
    -8.4%, -9.3%[11.5 µM]
CCOC(=O)N1CCc2c(sc3c2c(=O)n(Cc2ccccc2)c(=O)n3CC(=O)Nc2ccc(F)cc2)C1
    ?, ?
OC(C#CCN1CCCC1)(c1ccccc1)c1ccccc1
    -4.3%, -14.4%[11.5 µM]
COCCCOc1cc(C[C@@H](C[C@H](N)[C@@H](O)C[C@H](C(=O)NCC(C)(C)C(N)=O)C(C)C)C(C)C)ccc1OC
    -11.4%, -8.0%
CC(=O)Nc1ccc(C(=O)O)cc1
    -7.1%, -13.0%[11.5 µM]
C1CCC(C(CC2CCCCN2)C2CCCCC2)CC1 (centres undefined)
    46.5%[activator], -23.7%
CCN1CCN(CCCNC(=O)c2cc3c(s2)-c2c(C)cccc2OC3)CC1
    -16.3%, 20.4%
Cn1c(=O)c2c(ncn2CC2OCCO2)n(C)c1=O
    -4.3%, -12.9%
Cc1nc2ccccn2c(=O)c1CCN1CCC(C(=O)c2ccc(F)cc2)CC1
    0.8%, 0.2%[11.5 µM]
Cc1c(C(=O)NCCO)[n+](=O)c2ccccc2n1[O-]
    -10.4%, -5.9%
CN(C)CCN1CCN(c2cccc(Cl)c2)C1=O
    -9.0%, -2.7%[11.5 µM]
CCOc1ccccc1C(N)=O
    -5.9%, -16.6%[11.5 µM]

Going on with the list:
Each structure is followed by: StopGo RLuc, StopGo FLuc
O=S(=O)(c1cccc2cnccc12)N1CCCNCC1
    1.7%, -8.8%
c1ccc(CC2=NCCN2)cc1
    -7.8%, -3.0%[11.5 µM]
Nc1ncnc2c1ncn2Cc1c(F)cccc1Cl
    -8.5%, -13.2%
CCCNC(=O)C1CCC(Cn2c(=O)c3sccc3n(CC(=O)NCc3ccccc3)c2=O)CC1 (centres undefined)
    -2.7%, -5.0%
C/C(=N\Nc1nnc(Cl)c2ccccc12)c1ccc([N+](=O)[O-])cc1
    5.9%, 19.8%
COc1cc2c(cc1OC)C(=O)CC2
    20.3%, -3.7%[11.5 µM]
CN(C)[C@@H](CCOc1cccc2ccccc12)c1ccccc1
    -3.5%, -6.6%[11.5 µM]
CC(=O)c1ccc2c(c1)N(CCCN(C)C)c1ccccc1S2
    -6.5%, -11.8%[11.5 µM]
COc1ccc(CNC(=O)C2CCCN(c3nnc(C)c4c(C)n(-c5ccc(C)cc5)nc34)C2)cc1 (centres undefined)
    3.1%, -9.1%
Cc1ccc2[nH]cc(CCNC(=O)CCc3ccccc3)c2c1
    3.6%, 1.8%
CCC1Nc2cc(Cl)c(S(N)(=O)=O)cc2S(=O)(=O)N1 (centres undefined)
    -11.0%, -15.0%
Nc1c(I)cc(I)c(C(=O)N(CCC(=O)O)c2ccccc2)c1I
    -11.9%, -14.3%
COC(=O)C1=C(C)NC(C)=C(C(=O)OCCc2ccc(N3CCN(C(c4ccccc4)c4ccccc4)CC3)cc2)C1c1cccc([N+](=O)[O-])c1 (centres undefined)
    1.1%, -3.6%
Cc1cc(NS(=O)(=O)c2ccc(N)cc2)nc(C)n1
    52.8%[activator], 9.9%
O=C(NCCc1c[nH]c2ccccc12)c1cccnc1
    -2.8%, 31.7%[activator]
O=C(O)CNC(=O)c1ccccc1I
    -18.7%, -21.1%
Cc1ccc(C)c(NC(=O)Cn2cc(C(=O)c3ccco3)c3ccccc32)c1
    13.9%, 7.9%
Cn1c(=O)c2[nH]c(Br)nc2n(C)c1=O
    -5.1%&-16.4%, -2.2%
COc1ccc(C(=O)CC(=O)c2ccc(C(C)(C)C)cc2)cc1
    1.9%, 4.9%[11.5 µM]
Cc1ccc(S(=O)(=O)NC(=O)NC2CCCCCCC2)cc1
    84.2%[activator], -6.6%[11.5 µM]
CCOc1ccc(C(=O)OCCN(CC)CC)cc1
    -19.9%&-10.7%, 12.4%
C[C@]12CCC(=O)C=C1CC[C@@H]1[C@@H]2CC[C@@]2(C)[C@H]1CC[C@]2(O)C(=O)CO
    3.7%, -5.5%
COc1cc(NS(=O)(=O)c2ccc(N)cc2)nc(C)n1
    7.3%, -11.5%
Oc1ccc(/C=C/c2cc(O)cc(O)c2)cc1
    11.4%, 118.2%[activator]
CC[N+](C)(CC)CCOC(=O)C(O)(c1ccccc1)C1CCCCC1 (centres undefined)
    -0.9%, -6.1%
O=c1[nH]c2cc(C(F)(F)F)c(N3CCOCC3)cc2n(CP(=O)(O)O)c1=O
    -4.2%, -12.0%[11.5 µM]
CC1(C)O[C@H]2CC(=O)OC[C@]23[C@H]2CC[C@@]4(C)[C@H](c5ccoc5)OC(=O)[C@H]5O[C@]54[C@]2(C)C(=O)C[C@@H]13
    -7.5%, -15.1%[11.5 µM]
COc1cc2c(cc1OC)C(=O)C(CC1CCN(Cc3ccccc3)CC1)C2 (centres undefined)
    ?, -22.3%
COc1cc(C(=O)OC(COCCC(C)C)CN2CCOCC2)cc(OC)c1OC (centres undefined)
    19.4%, -8.3%
CCCn1cnc2c1c(=O)n(CCCCC(C)=O)c(=O)n2C
    -4.7%, -14.1%

A different layout for some results above:
smiles | StopGo RLuc | StopGo FLuc
COc1ccc(CNC(=O)C2CCCN(c3nnc(C)c4c(C)n(-c5ccc(C)cc5)nc34)C2)cc1 (centres undefined) | 3.1% | -9.1%
O=C(O)CNC(=O)c1ccccc1I | -18.7% | -21.1%
CC[N+](C)(CC)CCOC(=O)C(O)(c1ccccc1)C1CCCCC1 (centres undefined) | -0.9% | -6.1%
Cc1ccc(S(=O)(=O)NC(=O)NC2CCCCCCC2)cc1 | 84.2%[activator] | -6.6%[11.5 µM]
c1ccc(CC2=NCCN2)cc1 | -7.8% | -3.0%[11.5 µM]
C[C@]12CCC(=O)C=C1CC[C@@H]1[C@@H]2CC[C@@]2(C)[C@H]1CC[C@]2(O)C(=O)CO | 3.7% | -5.5%
Cc1ccc(C)c(NC(=O)Cn2cc(C(=O)c3ccco3)c3ccccc32)c1 | 13.9% | 7.9%

Next section:
Each structure is followed by: StopGo RLuc, StopGo FLuc
CCOc1ncc(F)c(=O)[nH]1
    -9.4%, -8.5%[11.5 µM]
CCN(CC)CCOC(=O)C1(c2ccccc2)CCCC1
    -7.4%&-11.3%, -15.7%&-18.5%
c1ccc(CN(CC2=NCCN2)c2ccccc2)cc1
    -11.5%, -20.5%
COc1ccccc1N1CCN(CCCNc2cc(=O)n(C)c(=O)n2C)CC1
    -14.5%, -5.7%
O=C(NCc1ccco1)c1ccc2c(c1)N(Cc1cccc(Cl)c1)C(=O)c1ccccc1S2=O (centres undefined)
    -3.6%, -14.7%
CC(COc1ccccc1)NC(C)C(O)c1ccc(O)cc1 (centres undefined)
    -3.5%, -6.1%[11.5 µM]
COc1ccc(CCNc2nc(SCc3ccccc3Cl)nc3ccccc23)cc1OC
    -16.7%, -17.2%
NC(N)=NCCC[C@H](N)C(=O)O
    -9.3%[5.77 µM], -17.2%[5.23 µM]
Cc1nc(-c2ccc(Cl)cc2)oc1COC(C)(C)C(=O)O
    -8.8%, -13.4%
O=C(c1ccc(F)cc1)C1CCN(CCn2c(=O)[nH]c3ccccc3c2=O)CC1
    17.4%, -13.9%[11.5 µM]
O=C(NCc1csc(-c2ccccc2)n1)C1CCN(S(=O)(=O)c2ccc3c(c2)CCCC3)CC1
    12.5%, -25.0%

3 entries from above, as labelled records:
SMILES: NC(N)=NCCC[C@H](N)C(=O)O
- StopGo RLuc = -9.3%[5.77 µM]
- StopGo FLuc = -17.2%[5.23 µM]
SMILES: Cc1nc(-c2ccc(Cl)cc2)oc1COC(C)(C)C(=O)O
- StopGo RLuc = -8.8%
- StopGo FLuc = -13.4%
SMILES: O=C(c1ccc(F)cc1)C1CCN(CCn2c(=O)[nH]c3ccccc3c2=O)CC1
- StopGo RLuc = 17.4%
- StopGo FLuc = -13.9%[11.5 µM]

This is a subset; count on the stated rates, not on these rows.
